Screening data: PubChem BioAssay, National Center for Advancing Translational Sciences (NCATS)
gsp antagonist = antagonists of gsp mutant (McCune-Albright syndrome). gsp-mutant cells, cAMP HTRF, 30 min; control for the full effect not named in the record. Potency, µM (titrated, usually from 76.9 µM), without a hit: at the highest dose activity change, negative = inhibition, hits mostly inhibitors. 0.4% of 340,000 active. AID 624288; active = falling curve of any shape with a large fitted effect; inconclusive = falling curve, mostly with a smaller effect; inactive = flat or rising curve; cell line not stated here;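 note: intracellular cAMP measured with PDE inhibitor Ro 20-1724 present during compound exposure; potency is the fitted concentration of half-maximal effect; % is set by controls: 0 for no effect and ±100 for the full control effect; nearly all actives have a fitted effect of over 65% in size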
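Measurement of cellular cAMP by homogeneous time-resolved fluorescence following a 30 min compound exposure at 37C. The PDE inhibitor […] was present throughout; the assay buffer was DPBS with 0.05% BSA and 0.005% Tween 20.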
gsp ag = gsp mutant agonism. gsp mutant cells, cAMP HTRF, 30 min; control for the full effect not named in the record. Potency, µM (highest dose often 76.9 µM), without a hit: at the top dose activation (cAMP increase), usual class: activators. 0.13% of 340,000 active. AID 624287; active = well fitted activation curve with a large enough effect; inconclusive = small, poorly fitted or top-dose-only effect, or another doubt; inactive = no such curve, though single readings can be large or run the other way; cell line not stated here;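 note: phosphodiesterase inhibitor Ro 20-1724 added with compounds to block cAMP breakdown; potency is the fitted concentration of half-maximal effect; nearly all actives have a fitted effect of over 60% in size; about a fifth of the inactives were tested at one dose only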
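Cells in DMEM/10% FBS with G418 were pretreated with compounds in DMSO plus […] (300 uM stock) for 30 min at 37C. cAMP was measured by HTRF (cAMP-d2 plus anti-cAMP antibody-K) after 30 min at room temperature.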
Sfp PPTase inh = Sfp phosphopantetheinyl transferase inhibition; Biochemical Sfp PPTase activity, qHTS; Q9F4F7; 3.5% of 310,000 active; Potency, µM, inactives show max response, negative = inhibition, usual class: inhibitors; active = well fitted inhibition curve with a large enough effect; inconclusive = small, poorly fitted or top-dose-only effect, or another doubt; inactive = no such curve, though single readings can be large or run the other way;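 note: the enzyme is Sfp with the accession as filed and its product quenches rhodamine fluorescence; potency is the fitted concentration of half-maximal effect; 0% = enzyme reaction without inhibitor and -100% = no enzyme wells; top concentration of the series not given in the record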
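Buffer: 50 mM Hepes-Na pH 7.6, 10 mM MgCl2, 0.01% Nonidet P-40, 0.01% BSA. Enzyme 15 nM, pre-exposed to compound 15 min; substrates then added and fluorescence change tracked over 30 min.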
Menin MLL FP FL = displaces fluorescein MLL peptide from human menin; Fluorescence polarization, fluorescein-MLL peptide displacement from menin; FP activity change, % at 61.4 µM; 290,000 tested, under 10 active; AID 1766; inconclusive = falling polarisation curve, or a change in total fluorescence; inactive = total fluorescence flat and polarisation flat or rising; no compound was filed as active; the % refers to the polarisation; negative = inhibition;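 note: % of control where 0% means no effect; inhibitors lower the polarisation; unlabelled MLL peptide was the positive control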
ClpP mod = qHTS Assay for Activators of ClpP | purified B. subtilis ClpP, FRET peptide cleavage, 20 min | Potency, µM (series often up to 57.5 µM), for inactives: at the top dose activity change, negative = active | 1.9% of 340,000 active | ATP-dependent Clp protease proteolytic subunit (Bacillus subtilis (strain 168)), P80244 | AID 651965, 2013; active = well fitted falling curve with a large enough effect; inconclusive = small, poorly fitted or top-dose-only effect; inactive = no such curve, though single readings can be large or run the other way; note: potency is the fitted concentration of half-maximal effect; the source files actives as falling curves though it sought activators and does not explain the sign; nearly all actives have a fitted effect of over 65% in size; many hits overshoot -100%
Target sequence (P80244 whole entry, looked up): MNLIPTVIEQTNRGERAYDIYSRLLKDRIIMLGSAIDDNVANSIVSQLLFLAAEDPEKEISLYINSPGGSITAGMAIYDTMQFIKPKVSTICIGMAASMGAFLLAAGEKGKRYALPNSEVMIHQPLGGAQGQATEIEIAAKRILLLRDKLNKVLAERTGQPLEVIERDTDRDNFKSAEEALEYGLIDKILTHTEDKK
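Purified B. subtilis ClpP, 10 microg/mL final in Tris/HCl pH8 with KCl, BSA, glycerol and Tween-20, cleaved an Abz/nitrotyrosine-quenched decapeptide. Fluorescence (ex 320, em 430) was read at 0 and 20 min at room temperature. Delta was normalized to 5.8 microM ADEP and DMSO/no-enzyme controls.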
TRPV1 PAM = human TRPV1 potentiation; Q8NER1; TRPV1-expressing cells, Fluo-8 calcium influx, capsaicin EC20 potentiation; host cell line not named in the record; control for the full effect not named in the record; potentiation, % at 8.33 µM; 0.02% of 320,000 active; AID 540277; active means potentiation above 80%; inconclusive means 30% to 80%; inactive means below 30%; note: 0% is about no effect
Target sequence (Q8NER1 whole entry, looked up): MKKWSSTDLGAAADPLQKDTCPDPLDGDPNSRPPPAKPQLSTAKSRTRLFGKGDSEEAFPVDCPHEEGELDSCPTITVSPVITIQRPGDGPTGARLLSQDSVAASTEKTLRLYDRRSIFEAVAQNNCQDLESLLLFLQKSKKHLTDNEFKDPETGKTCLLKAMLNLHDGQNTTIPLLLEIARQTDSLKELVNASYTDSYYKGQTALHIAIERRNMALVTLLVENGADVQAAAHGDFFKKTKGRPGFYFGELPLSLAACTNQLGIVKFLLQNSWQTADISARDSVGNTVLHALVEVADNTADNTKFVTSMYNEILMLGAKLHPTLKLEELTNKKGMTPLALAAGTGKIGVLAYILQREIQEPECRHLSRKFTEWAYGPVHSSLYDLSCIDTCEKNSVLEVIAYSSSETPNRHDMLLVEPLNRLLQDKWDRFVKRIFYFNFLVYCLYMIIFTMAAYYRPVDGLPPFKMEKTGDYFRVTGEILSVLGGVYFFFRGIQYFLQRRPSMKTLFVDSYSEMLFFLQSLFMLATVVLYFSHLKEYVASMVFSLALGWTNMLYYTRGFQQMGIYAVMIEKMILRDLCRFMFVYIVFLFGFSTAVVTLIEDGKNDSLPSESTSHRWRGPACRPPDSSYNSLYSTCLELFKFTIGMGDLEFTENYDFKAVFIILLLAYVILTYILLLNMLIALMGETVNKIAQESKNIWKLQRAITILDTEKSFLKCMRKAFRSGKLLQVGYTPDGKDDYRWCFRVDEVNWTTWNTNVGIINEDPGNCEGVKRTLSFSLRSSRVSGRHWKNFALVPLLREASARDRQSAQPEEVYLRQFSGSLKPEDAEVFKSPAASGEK
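Cells expressing TRPV1 were dye-loaded with Fluo-8 and read kinetically: 10 s baseline, 3 min after compound (agonist portion), then 2 min after EC20 capsaicin (allosteric enhancer portion). Calcium-bound dye fluorescence at 480/520 nm.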
CtBP-E1A inh = CtBP/E1A binding inhibition; activity change, % (concentration not given with the values); AlphaScreen GST-E1A/His-CtBP binding, 1536-well; hits give low values; control for the full effect not named in the record; AID 651724; 0.49% of 340,000 active; in the data active means activity change below about -65%; inconclusive means about -30% to -65%; inactive means above about -30%; note: % is set by controls: 0 for no effect and ±100 for the full control effect
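AlphaScreen with 125 nM GST-E1A and 125 nM His-CtBP (5X stocks) in Tris pH 8.0, 300 mM NaCl, BSA, Tween 20, TCEP. Compounds preincubated 2 h at 37 deg C, then glutathione donor/nickel acceptor beads added for 1 h at 37 deg C in dark.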
The depositor's hits bear a star; ? = inconclusive; · = not tested or not shown; & = joins results of further samples; [ ] = dose if it differs, or a comment. Not a hit list; any-hit rate near 5.3%.

SMILES	gsp antagonist	gsp ag	Sfp PPTase inh	Menin MLL FP FL	ClpP mod	TRPV1 PAM	CtBP-E1A inh
COc1ccc(CC(C)N2CCN(Cc3ccccc3)CC2)c(OC)c1 (stereo not given)	-5%	-6%	7%	0.3	-0.8%	-1	-10
O=C(Nc1ccccc1)C1CC=CCC1C(=O)OCC1CCCO1 (stereo not given)	-2%	0%	2%	0.3	-2.0%	12	1
COc1cc(/C=N\Nc2ccc([N+](=O)[O-])cc2)ccc1OCC(=O)Nc1ccc(C)c(C)c1	-1%	-22%	-25%	11	0.4%	·	3
O=C(c1cccc(Oc2ccccc2)c1)N1CCOCC1	1%	14%	9%	·	2.5%	-15	10
COc1ccc(OC)c(NC(=O)COC(=O)CCc2ccc(S(=O)(=O)N3CCOCC3)cc2)c1	-13%	14%	·	·	-1.6%	·	0
CCOC(=O)c1c(NC(=O)COC(=O)c2nc(Cl)ccc2Cl)sc(C(=O)NC)c1C	?	-15%[15.4 µM]	·	·	·	21	0
Cc1cc(C)nc(NC(=O)COc2cc(Cl)cc(Cl)c2)n1	3%	16%	3%	0.9	0.3%	-14	2
COc1ccccc1Oc1nnnn1-c1ccc(C(N)=O)cc1	-1%	4%	3%	1.4	1.0%	-4	6
O=C(COc1ccccc1F)Nc1ccc2c(c1)OCCO2	-4%	18%	9%	6.9	·	-8	5
O=C(COC(=O)C1CC1)Nc1ccc(Cl)cc1Cl	10%	-8%	·	·	0.4%	0	·
CC(C)CC(=O)Nc1ccc(C(=O)COC(=O)Cc2n[nH]c(=O)c3ccccc23)cc1	-10%	-63%[inhibitor]	·	·	-8.4%	1	-7
Cc1cc(=O)oc2c(C)c(OCC(=O)NC3CCN(Cc4ccccc4)CC3)ccc12	-13%	0%	17%	0.5	3.6%	-7	-22

A draw from above in order of SMILES length, ascending.
SMILES	gsp antagonist	gsp ag	Sfp PPTase inh	Menin MLL FP FL	ClpP mod	TRPV1 PAM	CtBP-E1A inh
O=C(c1cccc(Oc2ccccc2)c1)N1CCOCC1	1%	14%	9%	·	2.5%	-15	10
CCOC(=O)c1c(NC(=O)COC(=O)c2nc(Cl)ccc2Cl)sc(C(=O)NC)c1C	?	-15%[15.4 µM]	·	·	·	21	0
COc1ccc(OC)c(NC(=O)COC(=O)CCc2ccc(S(=O)(=O)N3CCOCC3)cc2)c1	-13%	14%	·	·	-1.6%	·	0

The listing continues:
SMILES	gsp antagonist	gsp ag	Sfp PPTase inh	Menin MLL FP FL	ClpP mod	TRPV1 PAM	CtBP-E1A inh
O=C(CN1CCN(S(=O)(=O)c2ccc(Cl)cc2)CC1)NC(=O)NC1CCCCC1	-8%	-5%	2%	4.4	1.0%	24	-3
Cc1ccc(C(=O)NC2CCN(CC(=O)Nc3c(C)cc(C)cc3C)CC2)cc1	-3%	-9%[15.4 µM]	8%	-0.1	0.2%	4	4
O=C(O)c1cc2ncc(CCO)cn2n1	-6%	-1%	?	-5.0	·	7	4
COC(=O)c1ccc(S(=O)(=O)c2ccc([N+](=O)[O-])cc2)cc1	11%	40%	6%	3.3	0.1%	7	·
CC(=O)OCC(=O)C12OC(C)(C)OC1CC1C3CC=C4CC(O)CCC4(C)C3CCC12C (stereo not given)	2%	22%	·	·	·	·	7
O=C(CCN1CCOCC1)N/N=C/c1cc(Br)cc(Br)c1O	6%	7%[15.4 µM]	-2%	12	·	2	-73*
O=C(Nc1nccs1)C1CC(=O)N(CCc2ccccc2)C1 (stereo not given)	6%	-4%	·	·	1.1%	-21	13
CN(C)CCNC(C(=O)Nc1cccc(S(=O)(=O)N2CCOCC2)c1)c1ccccc1 (stereo not given)	7%	?	·	·	0.1%	3	5
CCOC(=O)c1c(S(=O)(=O)N2CCCC(C(=O)Nc3ccc(C)cn3)C2)c(C)n(C)c1C (stereo not given)	7%	-19%	8%	·	-0.9%&-0.9%	12	-1
Cc1ccc(NS(=O)(=O)c2ccc3c(c2)CC(=O)N3)c(C)c1	-10%	-21%	10%	2.9	6.5%	1	-2
COc1cc(C(=O)NCc2cccc(Cl)c2)ccc1OCC(=O)N1CCOCC1	-6%	-5%	·	·	-15%	13	0
CCN(CC)CCNC(=O)Cn1nc(Cc2ccncc2)c2ccccc2c1=O	9%	-5%	25%	-4.8	-0.3%	1	4
Cc1cccc(C)c1NC(=O)CNC(=O)CNC(=O)c1ccc2c(c1)OCO2	13%	-12%[15.4 µM]	·	·	-17%	3	0
Cc1cc(N/N=C/c2cccc([N+](=O)[O-])c2)nc(-n2nc(C)cc2C)n1	6%	3%	20%	0.1	·	9	7
Cc1c(OCC(=O)NCc2ccccn2)ccc2c(-c3ccccc3)cc(=O)oc12	-2%	·	11%	-3.9	-2.6%	-5	11
Cc1cccc(C(C)C)c1NC(=O)Cc1ccc(S(=O)(=O)N2CCOCC2)s1	9%	?	·	·	-5.4%	13	-16
COc1ccc(S(=O)(=O)N(C)C)cc1NC(=O)COC(=O)c1nc2nccc(C)n2n1	4%	?	-3%	-0.8	0.2%	10	4
COc1ccc(CC(=O)N2CCN(C(=O)Cc3ccc(OC)c(OC)c3)CC2)cc1OC	·	26%	·	·	-0.4%	·	0
COc1ccc(CCN2CC(C(=O)Nc3ccc4c(c3)OCO4)CC2=O)cc1OC (stereo not given)	-12%	12%[15.4 µM]	-2%	-2.4	-8.9%	-3	2
CC1(C)Cc2cccc(OCC(=O)NCCOc3ccccc3)c2O1	-9%	5%[15.4 µM]	5%	2.0	·	-5	7
O=C(Cn1nc(C(F)F)cc1C(F)F)NNC(=S)Nc1ccc(F)cc1	-1%	?	14%	3.1	-1.4%	1	2
Cc1cc(C)nc(N2CCN(S(=O)(=O)c3ccc(F)cc3)CC2)n1	8%	-1%	9%	-6.1	-17%	-3	4
O=C(OCC(=O)c1ccc[nH]1)c1ccc(Br)cc1	11%	-129%[inhibitor]	·	·	-4.2%	-9	-13
COc1cc(/C=C/C(=O)N(C)CC(=O)Nc2ccccc2SC)cc(OC)c1OC	0%	-2%	·	·	-23%	·	10
CCOC(=O)c1c(S(=O)(=O)Nc2ccc(F)cc2Cl)c(C)n(C)c1C	-9%	0%	16%	0.1	1.4%	-13	-9
Cc1cc(Nc2cccc(Br)c2)c2ccccc2n1	-10%	-2%[15.4 µM]	·	·	0.9%	·	-2
CC1CCCC(C)N1C(=O)COc1ccccc1F (stereo not given)	5%	-15%	21%	-3.7	·	-3	6
COc1ccc(OC)c(C(=O)c2coc3ccc(O)c(CN(C)C)c23)c1	3%	-21%	-13%	-0.4	-0.4%	-1	·
Cc1ccc2nc3c(c(C(=O)OC4CCOC4=O)c2c1)CCCC3 (stereo not given)	-45%	5%[15.4 µM]	6%	2.9	·	-22	0
CCc1ccccc1NC(=O)C1CCN(S(=O)(=O)c2ccc(N3CCCC3=O)cc2)CC1	·	-1%	·	·	0.8%	·	0
Cc1nc(-c2ccc(C(=O)Nc3cccc(Br)c3)cc2)cs1	?	0%	50µM*	-1.4	179%	-5	·
CCOC(=O)c1c(NC(C)=O)sc(C(=O)NC2CCCC2)c1C	6%	12%[15.4 µM]	23%	0.5	·	5	6
N#Cc1cn(CCCOc2ccccc2)c2ccccc12	-10%	0%	-7%	1.6	4.2%	-6	66
COc1ccc([C@@H]2[C@@H]3C(=O)N(C(C)(C)C)C(=O)[C@@H]3[C@]3(Cc4ccc(Cl)cc4)C(=O)N(c4cccc(F)c4)C(=O)N23)cc1	-7%	·	·	·	0.3%	-36	3
O=C(c1cccc(F)c1)N1CCCC(C(=O)N2CCCCCC2)C1 (stereo not given)	7%	-1%	9%	1.8	0.7%	-3	·
O=C(NCc1ccccc1Cl)c1ccc(CS(=O)Cc2ccc(Cl)cc2)o1 (stereo not given)	-13%	-16%	9%	·	0.6%	11	1
CCN1CCN(c2ncc(C(=O)Nc3ccccc3C(=O)OC)c3ccccc23)CC1	18%	?	0%	-8.0	-14%	4	-4
CCN1CCN(C(=O)Cn2nc(C)c3sc4ccccc4c3c2=O)CC1	11%	21%	11%	-3.5	-29%	6	0
CC1CCCC(C)N1C(=O)Cn1nnc(-c2ccccc2)n1 (stereo not given)	4%	16µM*	13%	-0.1	1.0%	2	-5
N#CC1(c2ccccc2)CCC(=O)N1c1ccccc1 (stereo not given)	8%	16%	18%	2.1	-1.4%	6	·
Cc1[nH]c2ccccc2c1-c1ccc(Cl)nn1	-24%	32%[15.4 µM]	12%	-4.6	·	4	23
COc1ccc(/C=N/OCC(=O)N=Nc2c(O)[nH]c3ccc(Br)cc23)cc1OC	-9%	2%	-14%	4.0	·	3	-14
Cc1ccc(S(=O)(=O)N2CCN(C(=O)COC(=O)CCOc3cc(C)ccc3C)CC2)cc1	-11%	4%[15.4 µM]	·	·	-2.5%	?	-24
CC(OC(=O)c1nn(C)c(=O)c2ccccc12)C(=O)NCc1ccc2c(c1)OCO2 (stereo not given)	-1%	19%	11%	4.6	0.9%	-2	4
Cn1nnnc1NCc1ccccc1F	4%	1%	-3%	-0.2	-0.1%	2	·
CCSc1ncc(C#N)c(=O)[nH]1	6%	-25%	6%	2.3	0.8%	6	12
Cc1cc(C)cc(NC(=S)N(CCN(C)C)Cc2cccs2)c1	1%	-15%[15.4 µM]	20%	-7.6	·	-2	-6
O=c1cc(CSc2n[nH]c(-c3ccncc3)n2)nc2sccn12	1%	?	-7%	0.2	·	-5	-3
COc1cc(/C=N/NC(=O)c2ccncc2)ccc1OCC(=O)Nc1cccc([N+](=O)[O-])c1	4%	2%	3%	-1.8	·	-13	-8
COc1ccc(-c2cc(C(F)(F)F)nc(SCC(N)=O)n2)cc1	0%	-22%	-2%	-0.7	?	0	4
c1ccc2sc(SCSc3nc4ccccc4s3)nc2c1	6%	3%	-2%	-0.8	-0.6%	11	·
Cc1oc(-c2ccccc2)nc1C(=O)N1CCN(c2ccc(F)cc2)CC1	3%	1%[15.4 µM]	-7%	0.0	0.1%	8	-2
Cc1ccc(-n2ncc(C(=O)NC3CC3)c2C2CCN(C(=O)OC(C)(C)C)CC2)cc1	-20%	8%	-6%	-3.6	-1.2%	-11	6
COc1cccc(CN2C(=O)NC3(CCCCCC3)C2=O)c1	6%	-5%[15.4 µM]	11%	-2.3	·	1	-1
